Bfl-1 A1 inh – inhibitors of the anti-apoptotic protein A1, read as caspase activation | MEF A1-2A-BIM cells, Caspase-Glo 3/7 luminescence, 3 h; percent of clofoctol response, vehicle zero | caspase activation, % (no concentration beside the values) | 330,000 compounds, 0.066% hits | AID 2462;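 active = over half of replicate activation scores above 10%, or exactly half above 10 with the replicate mean above 10; inconclusive = replicate mean below 10 yet half the replicates above 10; inactive = over half of replicates below 10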;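 note: wells of about 30 µL received 50 nL stock; many hits fall short of the cut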
LANA-H2B inh – blocks KSHV LANA binding to histone H2A/H2B; Q9QR71; cell-free LANA-H2A/H2B peptide, fluorescence polarization; inhibition, % (no concentration beside the values); 320,000 compounds, 0.6% hits; AID 2629; in the data active = inhibition mostly above about 10%, no sharp cut-off; inactive = mostly below about 6.7%;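 note: stock transfer was 7.5 nL into about 10 µL; 0% = median of vehicle wells and 100% = median of positive control wells; one replicate is shown; the record names a cut of 25% in any replicate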
Target sequence (Q9QR71 whole entry, looked up): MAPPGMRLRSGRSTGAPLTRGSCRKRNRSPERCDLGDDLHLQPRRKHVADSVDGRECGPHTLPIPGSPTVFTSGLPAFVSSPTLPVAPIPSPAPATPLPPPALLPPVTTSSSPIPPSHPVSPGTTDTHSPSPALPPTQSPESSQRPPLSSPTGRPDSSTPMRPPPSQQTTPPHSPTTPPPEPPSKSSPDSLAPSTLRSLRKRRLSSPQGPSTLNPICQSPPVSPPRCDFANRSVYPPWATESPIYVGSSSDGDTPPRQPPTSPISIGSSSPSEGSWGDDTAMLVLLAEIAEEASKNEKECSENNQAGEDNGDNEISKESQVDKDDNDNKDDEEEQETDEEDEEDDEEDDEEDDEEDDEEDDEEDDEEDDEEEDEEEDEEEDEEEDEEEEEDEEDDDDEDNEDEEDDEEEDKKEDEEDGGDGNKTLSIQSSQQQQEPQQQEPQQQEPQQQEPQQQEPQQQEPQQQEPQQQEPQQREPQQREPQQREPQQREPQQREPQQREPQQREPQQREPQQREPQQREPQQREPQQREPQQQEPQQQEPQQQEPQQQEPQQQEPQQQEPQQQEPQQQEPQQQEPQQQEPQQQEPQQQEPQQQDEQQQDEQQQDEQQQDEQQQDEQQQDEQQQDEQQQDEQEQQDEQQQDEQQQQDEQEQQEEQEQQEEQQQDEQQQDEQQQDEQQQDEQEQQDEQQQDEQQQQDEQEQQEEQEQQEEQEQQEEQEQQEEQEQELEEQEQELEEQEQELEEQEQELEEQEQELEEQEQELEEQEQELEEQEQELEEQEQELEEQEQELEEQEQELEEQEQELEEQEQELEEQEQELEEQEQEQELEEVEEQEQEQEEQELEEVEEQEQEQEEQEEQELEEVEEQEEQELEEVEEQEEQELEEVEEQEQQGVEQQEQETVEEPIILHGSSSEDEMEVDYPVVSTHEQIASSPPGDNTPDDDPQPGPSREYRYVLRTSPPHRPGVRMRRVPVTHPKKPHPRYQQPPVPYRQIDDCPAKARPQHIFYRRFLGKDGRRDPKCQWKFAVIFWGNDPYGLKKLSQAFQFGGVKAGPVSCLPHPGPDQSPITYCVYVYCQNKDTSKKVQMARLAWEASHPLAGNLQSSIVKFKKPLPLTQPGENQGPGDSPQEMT
T cruzi inh – T. cruzi replication inhibition. T. cruzi beta-gal in NIH3T3, luminescence, 90 h. inhibition, % (test concentration not listed). 300,000 compounds, 1.4% hits. AID 1885;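 active = mean inhibition across valid replicates above about 55%, limit read from the data; inconclusive = mean below that limit but half or more replicates reach it; inactive = mean below it, under half of replicates reach it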;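 note: signal also drops with host cell toxicity which is not excluded here; 0% = plate median of DMSO wells and 100% = zero luminescence signal; higher percent means less beta-gal luminescence so fewer parasites; stock transfer was 50 nL into about 50 µL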
Vif TR-FRET – inhibitors of Vif binding to APOBEC3G peptide, primary screen, biochemical, TR-FRET, GST-Vif 1-94, biotin-A3G peptide, dose response retest (AID 1117319); TR-FRET GST-Vif / biotin-A3G peptide binding; higher % means a stronger effect; test concentration not given here; strong numbers were not always called active; inhibition, %, or IC50 in µM where a hit was titrated; 260,000 compounds, 0.57% hits;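 active = above the screen mean plus three standard deviations and confirmed in dose response; inconclusive = results disagree or hit not tested in dose response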;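 note: Vif residues 1-94 fused to GST binding biotinylated APOBEC3G peptide 110-148; 0% = full assay without inhibitor and 100% = GST in place of GST-Vif; retest series ran down from 100 µM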
Beta cell apopt – blocks beta cell apoptosis | protection from apoptosis, % (test concentration not listed) | INS-1E cytokine-induced death, ATP luminescence, 48 h; percent of positive-control rescue, neutral wells zero | 300,000 compounds, 0.8% hits;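 active = all replicates at 75% or more, or half of them and the mean; inconclusive = half reach 75% but not the mean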;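 note: 0% = cytokine-treated negative control wells and 100% = positive control rescue; higher means more ATP so stronger rescue from cytokine killing; wells of about 40 µL received 100 nL stock; the first replicate is given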
RanGTP-Imp inh – disruptors of Ran-importin-beta complex formation – biochemical, FRET, CFP-Ran, YFP-importin-beta, homogeneous, primary screen. inhibition, % (no concentration beside the values). cell-free CFP-Ran/YFP-importin-beta FRET ratio. 300,000 compounds, 1.1% hits;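 active = most replicates above 15%; inconclusive = exactly half above 15%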;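 note: 0% = DMSO wells and 100% = Ran loaded with GDP instead of GTP; wells of about 40 µL received 100 nL stock; the first replicate is given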
MLL AF4-AF9 inh – MLL-AF4/AF9 protein interaction inhibition | P42568 | AlphaScreen, biotin-AF4 peptide binding to FLAG-AF9 | inhibition, % at 10 µM | 350,000 compounds, 0.47% hits;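 active = every replicate reaching a set inhibition limit, whatever the replicate mean, cut at about 25% in these data; inconclusive = mean inhibition reaches that limit but some replicates miss it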;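 note: 0% = plate neutral control median and 100% = total signal loss; the record names both 10 and 1 µM as test concentration; the first replicate is given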
Calb FLC – affects C. albicans growth with fluconazole; C. albicans CaCi-2 (fluconazole-resistant clinical isolate) + fluconazole, Alamar Blue growth, 48 h; growth inhibition, % (no concentration beside the values); 300,000 compounds, 0.57% hits; AID 1979;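 active = most replicates above 75%; inconclusive = exactly half above 75%; inactive = most below 75%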;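 note: all wells also contain fluconazole at 8 µg/ml as a sub-toxic cotreatment; 0% = median of DMSO wells and 100% = median of geldanamycin control wells; wells of about 8 µL received 7.5 nL stock; the first replicate is given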
Starred values were filed as active, the others as inactive; ? = inconclusive; · = no result given.

No.	SMILES	Bfl-1 A1 inh	LANA-H2B inh	T cruzi inh	Vif TR-FRET	Beta cell apopt	RanGTP-Imp inh	MLL AF4-AF9 inh	Calb FLC
1	CC(C)(C)C1CCC(=NNC(=O)C(=O)NC2CCCCC2)CC1 (stereo not drawn)	0.2	0.7	-8	-3%	-2	-2.4	·	7
2	CC(=O)OCc1c(C(F)(F)F)nn(C)c1Oc1cccc(C(F)(F)F)c1	-0.7	1.1	2	2%	0	-0.5	·	-7
3	O=c1c(-c2ccnn2-c2ccc(F)cc2)cnc2n1CCS2	-0.4	2.7	2	1%	1	5.6	·	7
4	COCCOC(=O)CSc1ncccc1-c1nc2cc(C)c(C)cc2[nH]1	-13	-3.4	11	-103%	16	0.8	4.5	16
5	CC(C)c1c(C(=O)N/N=C/C=C/c2ccccc2)nnn1-c1nonc1N	0.7	4.5	2	4%	-1	-2.9	-0.5	-7
6	CCOc1ccccc1N1CCN(C(=O)CSc2ccc3c(c2)OCCO3)CC1	0.4	-0.7	·	23%	-8	·	0.6	·
7	CC1(c2nnc(-c3cccc(Cl)c3)o2)CC(c2cccc([N+](=O)[O-])c2)=NO1 (stereo not drawn)	0.4	-0.8	6	·	0	2.8	0.4	-3
8	CC1=CC(C)(C)N2C(=O)C3(N=C(N)NC(Nc4ccccc4)=N3)c3cc(C)cc1c32 (stereo not drawn)	-0.2	-4.9	15	-7%	-3	-1.0	·	-2
9	N#Cc1c(-c2ccccc2)nc(SCC(=O)Nc2ccccc2F)[nH]c1=O	-0.5	2.7	·	-16%	-4	·	-3.6	·
10	COc1ccccc1Cc1nc(-c2ccncc2)no1	-0.1	3.4	-7	8%	-1	4.4	-1.7	0
11	CCN(CC)S(=O)(=O)c1ccc(NC(=O)CSc2nnc(-c3ccc(F)cc3)o2)cc1	-0.8	5.1	24	3%	-3	1.4	·	11
12	O=C(OCc1nc2ccccc2s1)c1ccc([N+](=O)[O-])o1	-0.3	1.5	-4	·	-7	-1.4	·	-5
13	COc1ccc(C2CC3(CC(C)(C)NC(=S)N3)Oc3cc(O)cc(C)c32)cc1 (stereo not drawn)	0.1	-0.7	17	-2%	4	0.9	·	-11
14	O=[N+]([O-])c1ccc2nc(-c3ccncc3)[nH]c2c1	-12	5.3	-11	-2%	7	0.3	1.1	-9
15	O=C(Cc1ccccc1)NC(=S)Nc1cc(C(F)(F)F)ccc1Cl	0.9	-1.2	15	2%	-6	-0.6	·	0

Further records
No.	SMILES	Bfl-1 A1 inh	LANA-H2B inh	T cruzi inh	Vif TR-FRET	Beta cell apopt	RanGTP-Imp inh	MLL AF4-AF9 inh	Calb FLC
16	C=CCn1c(=O)c(C(=O)Nc2ccccc2C(=O)OCC)c(O)c2ccccc21	1.0	-4.6	-7	-3%	0	-1.3	·	6
17	CSc1ccccc1NC(=O)COC(=O)CCC(=O)c1ccc(F)cc1	-0.4	3.0	·	1%	-3	·	-3.6	·
18	CCn1cc(C(=O)N2CCc3ccccc3C2)c(=O)c2cc(S(=O)(=O)N3CCCCC3)ccc21	0.2	-3.3	-5	·	2	?	2.2	-7
19	COc1ccccc1N1CCN(C(=S)Nc2ccc3nc(N4CCOCC4)cc(C)c3c2)CC1	0.0	-7.3	31	·	-6	0.2	·	3
20	CNS(=O)(=O)c1ccc(OC)c(-c2nnc3c4ccccc4c(C)nn23)c1	0.4	-1.9	·	-6%	-2	?	·	0
21	NC(=O)c1sc2nc3c(c(-c4ccco4)c2c1N)CCC3	-0.2	0.7	3	?	-51	2.0	-33	?
22	COCC(=O)N(Cc1cc2cc(OC)ccc2[nH]c1=O)c1ccccc1OC	0.6	4.8	-1	9%	-6	-3.0	·	0
23	Cc1ccc(S(=O)(=O)N2CCC(=O)N2)cc1	0.4	-2.3	-17	?	-2	1.1	·	-7
24	O=C(NCC1CCCN(C(=O)c2cc(Cl)ccc2F)C1)c1ccc(F)cc1 (stereo not drawn)	1.5	-3.3	4	·	-1	-0.8	-3.4	0
25	O=C(O)c1ccc(N/N=C/c2cc(Br)cs2)cc1	-7.7	-1.3	-11	-2%	3	-3.1	4.2	1
26	O=C(OCC(=O)N1N=C(c2ccc(Cl)cc2)CC1c1ccco1)c1cccnc1 (stereo not drawn)	-1.0	-7.5	·	·	2	·	6.9	·
27	CCOc1ccc(N/C=C/C(=O)c2ccccc2)c([N+](=O)[O-])c1	-6.0	4.6	17	·	31	-6.6	?	-4
28	CN(C)C(=O)CSc1nnc(CCN)o1	-1.2	-4.8	4	4%	-7	0.1	·	-6
29	Cc1nc(N)sc1C(=O)N1N=N1	2.1	5.1	0	8%	-4	6.6	-2.2	9
30	COc1cc(CN2CCC(C(=O)N3CCCC(C)C3)CC2)cc(OC)c1O (stereo not drawn)	0.2	1.4	9	6%	1	5.0	·	2

Other structures
No.	SMILES	Bfl-1 A1 inh	LANA-H2B inh	T cruzi inh	Vif TR-FRET	Beta cell apopt	RanGTP-Imp inh	MLL AF4-AF9 inh	Calb FLC
31	O=C(/C=C/Nc1ccc([N+](=O)[O-])cc1)c1ccc(Br)cc1	0.3	3.9	-4	3%	8	-8.0	2.3	-23
32	C=CCn1cccc(C(=O)Nc2ccc(C)cc2)c1=O	-2.7	2.3	2	2%	3	11	-2.4	-121
33	O=C(/C=C/c1ccco1)Nc1ccccc1C(=O)O	-0.6	3.1	0	·	7	-4.9	-13	-24
34	COc1ccc(-c2nnc(SCC(=O)N(Cc3ccccc3)C(C)(C)C)o2)cc1OC	0.2	0.3	16	-2%	18	-2.3	·	23
35	COc1ccc(S(=O)(=O)N2CCC(C(=O)NCc3cccs3)CC2)cc1	0.9	-0.4	2	·	4	3.9	-2.9	16
36	Cc1ccc(NC(=O)c2ccc(OCC3CCCO3)cc2)cc1 (stereo not drawn)	-1.2	6.7	-6	-1%	-1	-3.6	-15	-5
37	C=CCNC(=S)Nc1sc2c(c1C#N)CCCC2	-0.2	1.9	-8	2%	-1	-0.4	-5.5	41
38	NS(=O)(=O)c1ccc(N=Nc2c(=O)[nH]n3c(=O)c4c([nH]c23)CCCC4)cc1	1.2	-5.2	-1	1%	·	-3.8	2.9	-7
39	CC1=NN(Cc2c(C)nn(Cc3ccccc3)c2C)C(C)(C)C1	0.4	-1.7	0	-4%	-3	1.4	-4.3	44
40	O=C(N/N=C/c1ccc([N+](=O)[O-])cc1)c1cc(-c2ccc3c(c2)OCO3)n[nH]1	-0.7	2.2	-9	2%	6	4.0	6.2	-2
41	Nc1c(N(Cc2ccccc2)C(=O)COc2ccc(F)cc2Cl)c(=O)[nH]c(=O)n1Cc1ccccc1	1.3	-4.1	·	·	4	·	-0.3	·
42	c1ccc2c(c1)Nc1cc3ccccc3cc1S2	-0.9	7.1	11	28%	-5	4.9	1.4	3
43	CCO[C@@H]1OC(C(=O)N2CCN(Cc3ccccc3)CC2)=C[C@H](c2ccc(Br)cc2)[C@H]1CCCO	0.7	6.9	37	8%	2	0.6	·	24
44	Cc1csc(SCC(=O)NC(C)c2ccccc2)n1 (stereo not drawn)	0.9	-0.4	-8	-8%	1	-0.9	-1.2	-8
45	COc1cc(CNc2ccc(C)c(C)c2)cc(OC)c1OC	0.9	5.5*	-9	5%	7	-1.2	-6.7	-8

(listing goes on)
No.	SMILES	Bfl-1 A1 inh	LANA-H2B inh	T cruzi inh	Vif TR-FRET	Beta cell apopt	RanGTP-Imp inh	MLL AF4-AF9 inh	Calb FLC
46	Cn1cc(CCNC(=O)CC2C(=O)NCCN2Cc2cccc(Oc3ccccc3)c2)cn1 (stereo not drawn)	0.6	-0.3	6	·	0	1.8	2.0	35
47	COc1ccc(S(=O)(=O)N2CCCC2c2cccs2)cc1 (stereo not drawn)	0.2	2.2	-1	6%	-1	4.1	-6.1	7
48	COC(=O)c1c(NC(NC(C)=O)C(Cl)(Cl)Cl)sc2c1CCCC2 (stereo not drawn)	-0.1	3.7	10	14%	3	3.3	·	7
49	O=C(Cn1ccc2ccccc2c1=O)NCCC(=O)N1CCN(c2ccccc2)CC1	-0.7	-1.8	-12	·	-5	1.7	-2.2	7
50	CCN(CC)CC(=O)c1c[nH]c2ccccc12	-0.1	2.2	-17	3%	-9	-0.2	·	-11
51	O=C(CSc1ccc2nnc(CCNC(=O)c3ccccc3)n2n1)Nc1ccccc1	-0.3	-4.1	-2	0%	-10	0.9	1.1	9
52	COC(=O)c1cccc(C(=O)N2CCCC(C(=O)c3ccccc3OC)C2)c1 (stereo not drawn)	0.2	3.0	7	1%	1	0.1	-0.6	11
53	CCC1CN(C(=O)N2CCC(C(=O)NCc3ccccc3OC)CC2)c2cc(C)ccc2O1 (stereo not drawn)	0.3	-0.5	3	5%	5	-1.2	3.8	12
54	CCc1ccc2c(c1)C(=O)C(=O)N2CCS(=O)(=O)c1ccccc1	0.7	6.9	-5	0%	-6	?	4.1	-1
55	COCCn1c(SCC(=O)Nc2ccc(C)cc2C)nc2c(oc3ccccc32)c1=O	-0.6	-0.3	4	-6%	-5	-3.2	-2.1	-6
56	CCc1nnc(NS(=O)(=O)c2ccc(NC(=S)NC(=O)/C=C/c3ccc([N+](=O)[O-])cc3)cc2)s1	1.5	4.1	-1	17%	0	8.1	2.0	6
57	c1ccc2c(C3=NNC(=NC4CCCCC4)SC3)c[nH]c2c1	-0.4	-1.3	10	·	5	1.0	1.9	-4
58	Nc1nncn1C(=O)c1ccccc1Cl	-0.7	-6.3	-10	-4%	-2	?	6.2	-4
59	CCOC(=O)c1sc(NC(=O)CCN2CC(C)OC(C)C2)c(C(=O)OCC)c1C (stereo not drawn)	-1.0	8.2	-7	13%	-4	1.2	·	-1
60	C/C(=N\O)C(=O)Nc1ccccc1	1.8	1.1	-13	-10%	2	-1.6	·	-15

(further entries)
No.	SMILES	Bfl-1 A1 inh	LANA-H2B inh	T cruzi inh	Vif TR-FRET	Beta cell apopt	RanGTP-Imp inh	MLL AF4-AF9 inh	Calb FLC
61	O=C(CNC1CCCCC1)Nc1ccc(S(=O)(=O)N2CCCCC2)cc1	1.2	-3.0	-2	·	5	6.9	0.3	-21
62	CC(NC(=O)C1CCN(S(=O)(=O)c2cccc3nonc23)CC1)c1ccccc1 (stereo not drawn)	0.4	0.2	3	13%	-2	-3.4	0.2	16
63	Cc1cccc(OCC(=O)Nc2ccc(N3CCN(S(C)(=O)=O)CC3)cc2)c1	0.7	2.6	-13	?	-6	0.6	·	5
64	CCc1ccc(OCC(=O)NC(NC(=S)Nc2ccccc2OC)C(Cl)(Cl)Cl)cc1 (stereo not drawn)	0.6	0.6	15	-1%	2	0.6	-0.9	4

From PubChem
